Screens as filed in PubChem BioAssay.
Six1-Eya2 blk = inhibitors of human Six1/Eya2 interaction. activity change, % (concentration not given with the values). AlphaScreen GST-Six1/His-Eya2 binding, biochemical; active compounds read low; control for the full effect not named in the record. AID 651725. hit rate 0.56% among 360,000. Q15475+O00167; in the data active = activity change below about -65%; inconclusive = about -30% to -65%; inactive = above about -30%; also: % is scaled to controls: 0 for no effect and ±100 for the full control effect
Target sequence (O00167 whole entry, looked up): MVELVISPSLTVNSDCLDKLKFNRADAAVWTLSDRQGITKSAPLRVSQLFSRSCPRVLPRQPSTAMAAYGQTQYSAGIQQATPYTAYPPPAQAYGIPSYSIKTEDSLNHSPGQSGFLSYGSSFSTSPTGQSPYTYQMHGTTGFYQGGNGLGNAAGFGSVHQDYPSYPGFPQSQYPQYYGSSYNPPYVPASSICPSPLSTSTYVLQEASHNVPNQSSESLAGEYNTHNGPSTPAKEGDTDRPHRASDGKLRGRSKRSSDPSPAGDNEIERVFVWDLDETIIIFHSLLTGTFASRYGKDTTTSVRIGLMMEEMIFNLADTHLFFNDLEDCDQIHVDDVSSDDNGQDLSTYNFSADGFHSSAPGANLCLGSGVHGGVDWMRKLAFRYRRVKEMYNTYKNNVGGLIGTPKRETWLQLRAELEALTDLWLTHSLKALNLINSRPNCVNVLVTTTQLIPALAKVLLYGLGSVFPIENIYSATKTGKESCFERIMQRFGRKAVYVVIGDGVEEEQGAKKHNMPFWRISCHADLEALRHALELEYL
Target sequence (Q15475 whole entry, looked up): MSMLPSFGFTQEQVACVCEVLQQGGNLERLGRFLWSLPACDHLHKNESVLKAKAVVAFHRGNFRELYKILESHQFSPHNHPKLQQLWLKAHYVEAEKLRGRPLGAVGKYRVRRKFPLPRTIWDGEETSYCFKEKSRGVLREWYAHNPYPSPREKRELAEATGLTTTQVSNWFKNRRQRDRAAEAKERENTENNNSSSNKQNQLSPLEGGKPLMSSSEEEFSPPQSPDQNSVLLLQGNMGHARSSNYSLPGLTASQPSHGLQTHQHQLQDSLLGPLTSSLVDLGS
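Compounds are tested against tagged Six1 and Eya2 proteins bridged by glutathione donor and nickel acceptor beads; after a one-hour incubation at 37 °C without light, AlphaScreen emission is recorded.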
D2 potentiator = potentiates the human D2 dopamine receptor allosterically | DiscoveRx D2 beta-arrestin cells, luminescence, 90 min; 100% = 57 uM dopamine signal | hit rate 0.23% among 360,000 | potentiation, % (concentration not given with the values) | P14416; active = potentiation of 50% or more; inconclusive = 30% to 50%; inactive = 30% or less;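 also: compound concentration not given in the record; tested on top of an EC20 dose of dopamine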
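PathHunter beta-arrestin assay in DiscoveRx D2 cells. Compounds were added with an EC20 of dopamine (50 nM final) for 90 min at 37 deg C. Luminescence was read 1 h after detection reagent, with 57 uM dopamine as the EC100 control.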
PINK1 expr mod = changes PINK1 expression. PINK1 immunofluorescence, high-content cytometry, 24 h. Potency, µM (top dose mostly 76.6 µM), for inactives: at the top dose activation (PINK1 increase), hits mostly activators. hit rate 0.2% among 410,000; active = well fitted activation curve with a large enough effect; inconclusive = small, poorly fitted or top-dose-only effect; inactive = flat fitted curve, though single readings scatter; cell line not stated here;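 also: potency is read from the fitted curve at half-maximal effect; % of control where 0% means no effect; nearly all actives have a fitted effect of over 65% in size; a mitochondrial uncoupler was the plate control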
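Stable cell line, 250 cells/well, 12 h attachment; compounds pinned at 5 concentrations, 24 h; CCCP control. Fixed with nuclear dye, primary antibodies 12 h at 10 degrees C, secondary plus cell stain; laser-scanning cytometer read.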
D2 ag = activates the human D2 dopamine receptor; P14416; DiscoveRx PathHunter D2 beta-arrestin, luminescence, 90 min; 100% = 57 uM dopamine signal; activation, % (concentration not given with the values); hit rate 0.084% among 360,000; AID 624465; in the data active = activation above about 40%; inconclusive = about 15% to 40%; inactive = below about 15%; also: compound concentration not given in the record; the text of the record calls up to 30% inactive
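DiscoveRx PathHunter D2 beta-arrestin cells (2,100/well) attached overnight, then compound-stimulated 90 min at 37 C in HBSS/10 mM HEPES/0.1% Tween-20 buffer; beta-galactosidase complementation read by luminescence after 1 h at ambient temperature. Dopamine 57 uM final (EC100) as control.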
TRPML1 inh = inhibitors of human TRPML1 channel | activity change, negative = inhibition, % (concentration not given with the values) | hit rate 0.02% among 390,000 | TRPML1-inducible cells, Ca2+ dye fluorescence, FDSS; active compounds read low; inhibition of EC80 agonist-evoked calcium signal | AID 624415 | Q9GZU1; in the data active means activity change below about -50%; inconclusive means about -30% to -50%; inactive means above about -30%;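 also: stimulus is agonist 54-4 at its EC80 concentration; % is scaled to controls: 0 for no effect and ±100 for the full control effect; the text of the record puts the active cut at -80%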
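Calcium fluorescence in TRPML1-DL cells induced overnight with Tet: a 110 s read after compound pin addition, then a 110 s antagonist read after challenge with 54-4 at 4 uM final (EC80).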
TRPML1 agonist = agonists of human TRPML1 channel; TRPML1-expressing cells, Ca2+ dye fluorescence, FDSS; host cell line not named in the record; reference of the full effect not given here; AID 624414; hit rate 0.12% among 410,000; Q9GZU1; activation, % (no concentration beside the values); in the data active = activation above about 50%; inconclusive = about 30% to 50%; inactive = below about 30%; also: 0% is about no effect; the text of the record puts the active cut at 80%
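Tetracycline-induced TRPML1-DL cells are seeded and incubated overnight before loading with a no-wash Ca2+ dye and quencher. Agonist activity is taken from the 110 s fluorescence read following compound pin-transfer on an FDSS, before EC80 54-4 challenge.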
* = called active by the depositor; ? = inconclusive; . = no result given; & = joins results of further samples; [ ] = another dose, or the depositor's remark.

SMILES	Six1-Eya2 blk	D2 potentiator	PINK1 expr mod	D2 ag	TRPML1 inh	TRPML1 agonist
O=C(Cc1c(F)cccc1Cl)Nc1cc(S(=O)(=O)N2CCOCC2)ccc1N1CCOCC1	-4	-16	6.6%	-2.9	3	0.0
CCNC(=O)C1(c2ccccc2)CCCC1	4	-10	-1.7%	2.2	2	-0.3
CC(NC(=O)C(=O)N/N=C/c1ccc(Cl)cc1)c1ccccc1 (stereo unspecified)	-13	0	0.8%	0.3	40	0.1
O=C(CSc1nccc(=O)[nH]1)NN(c1ccccc1)c1ccccc1	3	-5	2.6%	-1.2	10	-0.2
COc1cccc(C(=O)Nc2ccc3nc(SCC(=O)N(C)c4ccccc4)sc3c2)c1	.	.	1.3%	.	2	1.1
Cc1[nH]nc(S(=O)CC(=O)O)c1[N+](=O)[O-] (stereo unspecified)	9	-5	1.2%	1.1	-7	-0.3
CC(C)(C)n1ncc(Oc2ccccc2[N+](=O)[O-])c(Cl)c1=O	6	-17	16%	3.3	-4	1.2
Cc1cc(C)cc(OC(C)C(=O)Nc2nc3c(s2)CCCC3)c1 (stereo unspecified)	.	.	4.2%	.	-19	0.9
COc1ccc(C)cc1NC(=O)C1CCCN(S(=O)(=O)c2ccc3[nH]c(=O)ccc3c2)C1 (stereo unspecified)	-7	-12	0.2%&1.1%	-1.4	12&-3	-1.2&-0.4
CN1CCN(C(=O)c2ccc(Cn3cc(Cl)cn3)o2)CC1	-6	-7	-1.4%	0.7	3	-0.5
O=C(NCc1ccco1)C(c1ccc(F)cc1)N(CC1CCCO1)C(=O)Cn1nnc2ccccc21 (stereo unspecified)	1	-12	-0.8%	-3.8	13	0.0
Cc1c(NC(=O)c2ccc(S(=O)(=O)Nc3ccccc3F)cc2)c(=O)n(-c2ccccc2)n1C	-1	-46	-1.0%	3.5	3	-0.5
COC(=O)c1ccc(CSc2nnc3sc4ccccc4n23)o1	-7	-11	4.0%	-1.7	13	-0.9
Cc1ccc(NC(=O)CN(C)C(=O)CN2C(=O)NC(C)(c3ccccc3)C2=O)cc1 (stereo unspecified)	3	-4	0.5%[38.3 µM]	-0.1	2	-0.3
CCn1cc(CCC(=O)O)c(C)n1	-2	-5	2.7%	0.0	8	1.3
O=C(OCC(=O)N1CCOCC1)c1ccccc1Br	4	1	0.5%	-0.2	-10	-0.1
N[C@@]12CCc3nonc3[C@]1(O)CC(c1ccccc1)=[N+]2[O-]	5	-3	-3.3%	1.5	6	1.2
Cc1ccccc1NC(=O)C[n+]1cc(-c2ccccc2)n2c1CCC2	-5	-5	0.6%	0.7	-7	0.2
O=c1c(Cc2c(F)cccc2Cl)c(O)ccn1Cc1ccc2c(c1)OCO2	1	-4	-0.8%	-2.8	12	-0.1
CSc1ccc(CCNC(=O)Cn2nc(C)n3c(cc4sccc43)c2=O)cc1	.	.	0.4%	.	-10	-0.7
COc1cc(CCNC(=O)c2ccccc2NC(=O)C2=C(C)OCCS2)cc(OC)c1OC	-15	3	-1.5%	-6.1	27	0.4
N#Cc1ccc(CC(=O)c2ccccc2)[nH]c1=O	-9	26	0.9%	0.8	-5	2.4
CC(C)CN1C(=O)C(NC(=O)C2CC2)(C(F)(F)F)C2=C1CC(C)(C)CC2=O (stereo unspecified)	8	3	0.2%	-7.3	20	-0.4
Cc1cccc(NC(=S)Nc2ccccn2)c1C	2	-9	3.1%	-1.1	0	-0.5
CN(C)c1ccc(CNc2ccc3c(c2)ncn3C(C)(C)C)cc1	?	-8	-0.2%	9.5	-7	-0.2
COc1ccc(S(=O)(=O)NCC(c2ccc3c(c2)OCO3)N2CCOCC2)cc1 (stereo unspecified)	9	-15	1.9%	1.0	9	-0.1
CN1CCN(C(=O)Nc2cccc(-c3ccccc3)c2)CC1	0	-1	-1.0%	-0.5	-14	0.8
Cc1ccc(Cl)cc1N1CCN(S(=O)(=O)c2ccc3[nH]c4c(c3c2)CCCCC4)CC1	.	.	5.3%	.	6	0.9
O=C(COC(=O)c1cccc(S(=O)(=O)N2CCOCC2)c1)Nc1ccc2c(c1)OCO2	1	-31	-0.4%	-2.0	30	-0.7
COc1ccc(/C=N/Nc2nc(N3CCCCC3)nc(N3CCCCC3)n2)cc1[N+](=O)[O-]	-4	0	0.8%	-2.2	-7	1.1
CCCCCC(=O)Nc1ccccc1N1CCN(c2ccccc2)CC1	4	-21	.	-2.5	10	0.5
O=C1CN(C(=O)COc2ccc(Cl)cc2)C(c2ccc(F)cc2)c2cc(Br)ccc2N1 (stereo unspecified)	.	.	-1.0%	.	23	2.3
O=C(COCc1cc(-c2cccs2)on1)Nc1cc(Cl)ccc1O	.	.	-0.5%	.	19	1.7
COC(=O)[C@@]1(Cc2ccc(F)cc2)[C@H]2c3cc(C(=O)N(C)C)n(CCCNc4ncc(C(F)(F)F)cc4Cl)c3C[C@H]2CN1C(=O)c1ccccc1	-5	.	1.2%	.	.	0.0
CCOc1ccc(NC(=O)CC2C(=O)N(c3ccccc3)C(=O)N2CCc2ccc(OC)cc2)cc1 (stereo unspecified)	.	.	1.2%	.	1	1.2
O=C(NCCNc1ccc([N+](=O)[O-])cc1C(F)(F)F)c1ccccc1	-5	-19	10%	-2.0	31	0.2
O=C(NCc1ccccc1)c1cnsn1	0	-13	?	-2.5	-2	-0.6
CCN1CCN(c2nc3c(c(=O)n(C)c(=O)n3C)n2CCSc2nccc(C)n2)CC1	0	7	1.2%[38.3 µM]	-0.6	10	-0.6
CCOC(=O)C1=C(O)/C(=C\c2cccc(OC)c2)N=C1C	3	-6	.	2.6	24	1.3
COc1cc(C2=NOC(C(=O)Nc3cc(C)on3)C2)cc(OC)c1OC (stereo unspecified)	-3	-7	-0.1%	-3.4	1	-0.8
CCOc1ccccc1N1C(=O)c2ccc(C(=O)O)cc2C1=O	2	-5	-1.9%	4.0	1	-0.1
O=C1CCCN1CCCNc1ncnc2sccc12	0	8	2.8%	-2.9	-13	0.5
COc1ccc(NC(=O)CCCC2=NS(=O)(=O)c3ccccc3N2)cc1	5	10	-0.8%	4.5	-4	-0.4
Cc1ccc(C2=NC(c3ccc(F)cc3)=Nc3ccc(C)cc3N2)cc1	.	.	3.1%	.	16	1.1
CCOC(=O)c1sc(N(C)C)nc1-c1ccccc1	1	-22	0.1%	-5.8	8	2.8
Cc1cc(C)c(C)c(OCc2nc(-c3cccnc3)no2)c1	-2	-31	.	-2.4	1	2.5
CC(C)(C)c1cc(NC(=O)C2(C)CCN2C(=O)C2(c3ccccc3)CC2)no1 (stereo unspecified)	-3	-10	0.6%	-0.2	-4	-0.8
Cn1sc(NC(=O)c2ccc(Cl)cc2)nc1=O	0	-15	2.5%[38.3 µM]	-2.3	18	0.4
CC1Oc2ccccc2N(CC(=O)NCc2ccc3c(c2)OCO3)C1=O (stereo unspecified)	0	2	0.2%	-1.5	-3	0.2
CCC(=O)c1ccc(N2CCCCCC2)c(F)c1	27	-9	-1.0%	0.8	-1	0.6
Cc1cnc(NC(=O)C2CC=CCC2)s1 (stereo unspecified)	-3	-11	-1.1%	-2.4	-7	-0.2
Cc1ccc(-c2nn(-c3ccccc3)c3[nH]c(=O)c(CNCc4ccccc4)cc23)cc1	-13	-24	8.6%[38.3 µM]	-3.5	-4	-0.3
COCCNC(=S)NN=C1CCCCC1	1	-2	0.2%	-2.2	-11	-0.1
Cc1ccc(Cl)cc1N1CCN(C(=O)CCNS(=O)(=O)c2ccc3c(c2)CCN3C(=O)C2CC2)CC1	.	.	-4.7%	.	16	0.9
O=C(CN1CCN(c2ccccn2)CC1)Nc1ccc(F)c(F)c1	9	3	2.0%	?	-3	0.7
O=C(CN(C(=O)CCC(=O)Nc1nccs1)c1ccc(F)c(Cl)c1)NCc1ccco1	-7	-42	-2.9%	-4.4	-5	-0.9
O=C1CC(C(=O)N(c2ccc(F)cc2)C(C(=O)NC2CCCC2)c2ccccn2)CS1 (stereo unspecified)	-1	-11	-5.4%[38.3 µM]	-3.3	20	0.0
COc1cc(S(=O)(=O)NCc2ccncc2)c(OC)cc1C	11	-2	1.3%	-4.5	12	0.7
Cc1ccc(S(=O)(=O)NC(C)C(=O)OCC(=O)N(C)c2ccccc2)cc1 (stereo unspecified)	-1	4	1.8%	?	-6	-0.5
C=CCn1c(SCC(=O)OCC)nc(C(F)(F)F)cc1=O	3	1	-0.8%	-0.7	-14	3.5

Brought forward from above: 2 compounds, then new ones.
SMILES	Six1-Eya2 blk	D2 potentiator	PINK1 expr mod	D2 ag	TRPML1 inh	TRPML1 agonist
Cc1ccc(S(=O)(=O)NC(C)C(=O)OCC(=O)N(C)c2ccccc2)cc1 (stereo unspecified)	-1	4	1.8%	?	-6	-0.5
C=CCn1c(SCC(=O)OCC)nc(C(F)(F)F)cc1=O	3	1	-0.8%	-0.7	-14	3.5
CC(C)(C)C(=O)NC1CC2CCCC(C1)N2C(=O)Nc1cccc(Cl)c1 (stereo unspecified)	-8	-4	3.2%	-5.3	-5	-0.6
COCCSc1nc2sc3c(c2c(=O)n1-c1ccccc1)CCN(C)C3	-1	4	-0.5%	1.3	2	1.4
O=C(COCc1cc(-c2ccco2)on1)Nc1cccc(Cl)c1Cl	.	.	2.3%	.	5	2.2
CCN(CC)CCOc1ccc(C=NNc2nc3c([nH]2)c(=O)n(C)c(=O)n3C)cc1	-24	0	-1.3%	7.3	15	1.2
O=C1CC(Nc2ccc(N3CCOCC3)cc2)C(=O)N1CCc1ccccc1 (stereo unspecified)	-13	10	-1.1%	-2.4	2	-0.1
CN(C)S(=O)(=O)N(CC(=O)NCCSc1ccccc1)c1ccccc1	.	.	-0.1%	.	4	-0.7
CCc1oc(C(=O)O)cc1COC	-10	-3	-2.3%	-0.6	-2	3.1
CCCC(=O)c1c[nH]c(C(=O)N2CCOCC2)c1	4	5	1.6%	-2.8	53	0.6
CC1(c2ccc(Cl)cc2)NC(=O)N(CC(=O)Nc2ccc(N3CCCCC3)cc2)C1=O (stereo unspecified)	-8	-11	5.1%	-4.1	8	0.6
CN1CCN(C(=O)c2ccc(-c3cnn(C)c3)c3ccoc23)CC1	5	-9	0.3%	-3.0	.	0.5
CC(C)C(=O)NNC(=O)c1cc2sccc2s1	-1	-22	0.1%	-4.1	-14	-0.1

Among those listed so far, these contain two or more sulfur atoms.
SMILES	Six1-Eya2 blk	D2 potentiator	PINK1 expr mod	D2 ag	TRPML1 inh	TRPML1 agonist
COc1cccc(C(=O)Nc2ccc3nc(SCC(=O)N(C)c4ccccc4)sc3c2)c1	.	.	1.3%	.	2	1.1
COC(=O)c1ccc(CSc2nnc3sc4ccccc4n23)o1	-7	-11	4.0%	-1.7	13	-0.9
CSc1ccc(CCNC(=O)Cn2nc(C)n3c(cc4sccc43)c2=O)cc1	.	.	0.4%	.	-10	-0.7
COCCSc1nc2sc3c(c2c(=O)n1-c1ccccc1)CCN(C)C3	-1	4	-0.5%	1.3	2	1.4
CN(C)S(=O)(=O)N(CC(=O)NCCSc1ccccc1)c1ccccc1	.	.	-0.1%	.	4	-0.7
CC(C)C(=O)NNC(=O)c1cc2sccc2s1	-1	-22	0.1%	-4.1	-14	-0.1
